# Screening results (PubChem BioAssay)
# GLA inh pH 4.5 = blocks human alpha-galactosidase A at pH 4.5; purified enzyme, 4-MU-alpha-Gal fluorescence, pH 4.5; P06280; activity change, negative = inhibition, % at 105 µM; AID 1467; 230,000 tested, under 10 active; inconclusive = small, poorly fitted or top-dose-only inhibition, or a rising curve; inactive = flat fitted curve, though single readings scatter; no compound was filed as active;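 note: 0% = full activity with enzyme and -100% = basal without enzyme; dose as in the result columns while the protocol names 77 µM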
# Rango complex inh = Rango-importin beta binding inhibition; actives 0.031% (n = 340,000); Rango CFP/YFP FRET sensor + importin beta, 45 min; Potency, µM (top dose mostly 92.2 µM), without a hit: top-dose inhibition of complex formation; Q14974; active = rising FRET ratio curve, often small or poorly fitted; inconclusive = mostly compound fluorescence or quenching in the first reads; inactive = flat curves in all reads;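 note: potency is the fitted concentration of half-maximal effect; 0% = DMSO wells and 100% = buffer wells lacking importin beta; nearly all actives have a fitted effect of over 15% in size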
# Target sequence (Q14974 whole entry, looked up): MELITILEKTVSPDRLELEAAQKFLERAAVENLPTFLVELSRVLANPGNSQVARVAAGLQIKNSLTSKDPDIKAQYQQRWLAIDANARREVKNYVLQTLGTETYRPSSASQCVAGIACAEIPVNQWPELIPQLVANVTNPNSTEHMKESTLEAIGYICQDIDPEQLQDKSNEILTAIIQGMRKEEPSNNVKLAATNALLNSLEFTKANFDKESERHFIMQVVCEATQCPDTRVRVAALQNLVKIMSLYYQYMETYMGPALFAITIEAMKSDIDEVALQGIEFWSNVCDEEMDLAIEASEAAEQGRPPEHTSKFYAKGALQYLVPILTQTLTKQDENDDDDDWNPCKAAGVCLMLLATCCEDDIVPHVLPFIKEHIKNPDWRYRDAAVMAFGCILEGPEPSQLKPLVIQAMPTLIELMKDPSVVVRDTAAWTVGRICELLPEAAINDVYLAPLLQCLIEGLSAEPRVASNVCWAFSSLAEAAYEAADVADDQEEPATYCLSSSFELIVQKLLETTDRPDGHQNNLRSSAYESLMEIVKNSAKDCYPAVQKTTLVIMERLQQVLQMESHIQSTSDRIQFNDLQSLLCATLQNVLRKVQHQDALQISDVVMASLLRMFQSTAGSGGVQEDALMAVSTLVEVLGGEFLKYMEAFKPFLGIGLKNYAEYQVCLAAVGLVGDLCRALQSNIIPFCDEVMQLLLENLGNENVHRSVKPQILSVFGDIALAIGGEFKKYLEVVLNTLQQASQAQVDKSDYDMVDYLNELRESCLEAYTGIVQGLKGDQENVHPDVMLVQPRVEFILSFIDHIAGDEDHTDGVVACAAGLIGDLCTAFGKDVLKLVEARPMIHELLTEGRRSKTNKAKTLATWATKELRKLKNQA
#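 FRET biosensor (snurportin 1 IBB flanked by EYFP and cerulean), 50 nM, with compound 5 min, then 0.125 microM importin beta in PBS, 1 mM DTT, 0.02% Tween-20, 0.1% BSA. CFP/YFP ratio read after 45 min at room temperature; pre-read flags interference.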
# Rango dissoc inh = inhibition of RanGTP-driven Rango-importin beta dissociation. Biochemical FRET Rango-importin beta, RanGTP-induced dissociation. O95149+P62826. Potency, µM (titrated, usually from 46.1 µM), for inactives: at the top dose activity change, negative = inhibition. actives 0.071% (n = 340,000); active means falling FRET ratio curve, often poorly fitted, with flat reads before Ran was added; inconclusive means other falling curves, or compound fluorescence or quenching; inactive means flat or rising ratio curve;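 note: potency is the fitted concentration of half-maximal effect; % of control where 0% means no effect; nearly all actives have a fitted effect of over 45% in size; -100% = wells without RanGTP and RCC1; the record marks most hits as doubtful in a second field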
#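 Recombinant Rango FRET biosensor (EYFP–snurportin 1 IBB–cerulean CFP10) at 0.1 uM premixed with 0.25 uM importin beta in PBS, 1 mM DTT, 0.02% Tween-20, 0.1% BSA. Compound added 5 min; RanGTP-RCC1 (0.6 uM Ran, 2 mM GTP, 0.2 uM RCC1) then triggers release, read at 45 min.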
# miR-21 FLuc = raises the signal of a miR-21 reporter; 340,000 tested, under 10 active; HeLa miR-21 FLuc reporter, luciferase, 48 h; Potency, µM (titrated, usually from 38.3 µM), for inactives: at the top dose reporter change, positive = more light; active = well fitted rising curve with a large enough effect; inconclusive = small, poorly fitted or top-dose-only effect; inactive = no such curve, though single readings can be large or run the other way;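 note: % of control where 0% means no effect; miR-21 action dims this reporter so a rising signal means less miR-21 action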
#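 Compounds were titrated across several concentrations (up to approximately 40 uM) and incubated 48 hours with HeLa miR-21-FLuc reporter cells (miR-21 target sequence downstream of FLuc, endogenous miR-21). Readout was firefly luciferase luminescence after lytic detection reagent.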
# * marks the source's active call; other numbers are inactive results; u = inconclusive; x = not tested or not shown; & = joins results of further samples; [ ] = remark or other dose. Some of the compounds tested. The share of hits here may be higher or lower than overall.
cpd	Compound	miR-21 FLuc	Rango dissoc inh	Rango complex inh	GLA inh pH 4.5
1	Cn1c(C(=O)NCc2ccccn2)cc2c(=O)n3ccccc3nc21	-53%	-19%	u	u
2	CCN(C(=O)/C=C/c1cc(OC)c(OC)c(OC)c1)C1CCCCC1	1%	0%	1.8%	x
3	COc1ccccc1NC(=O)CS(=O)(=O)c1cccc2nsnc12	-6%	-6%	0.3%	-10
4	COC(=O)c1sccc1NC(=O)CNC(=O)c1ccccc1	-13%	15%	5.4%	8
5	O=C(/C=C/c1ccc(Cl)cc1)Nc1ccccc1N1CCOCC1	-10%	-7%	1.4%	-1
6	Cc1noc(COc2ccccc2OCC(N)=O)n1	x	0%	2.0%	x
7	Cc1cc(C)n2nc(C(=O)NCc3cccc(C(F)(F)F)c3)nc2n1	-9%	3%	-2.2%	3
8	Cc1ccc(/C=C/c2nc3ccccc3c(=O)[nH]2)cc1	-62%	16%	0.0%	-2
9	Cc1cc(/C=N\NC(=O)COc2cccc3cccnc23)c(C)n1-c1ccccc1	-21%	-1%	4.2%	-1
10	CC(NC(=O)c1ccccc1)c1nnc(SCc2nc3ccccc3c(=O)[nH]2)n1C (stereo not given)	1%	3%	-0.5%	4
11	CCc1nnc(NC(=O)CCn2cnc3ccccc3c2=O)s1	7%	-2%	-0.6%	-1
12	CCN(CC)CCCC(C)NC(=O)c1ccc(C(F)(F)F)cc1 (stereo not given)	-18%	4%	-0.2%	3
13	CC(=O)Nc1ccc(C=NNc2nnc(NN=Cc3ccc(NC(C)=O)cc3)c3ccccc23)cc1	x	-7%	-1.6%	x
14	Cc1ccc(S(=O)(=O)CNC(=S)c2cccc(C)c2)cc1	-2%	1%	2.1%	5
15	CC(C)N1CCN(Cc2cc3ccccc3[nH]2)CC1CCO (stereo not given)	-5%	0%	u	x
16	COc1ccc(-c2cc(C(=O)OCC(=O)NC3CC3)c3ccccc3n2)cc1OC	x	u	u	x
17	COCCN1C(=O)c2cc(C(=O)Nc3ccc(OC)c(OC)c3)ccc2C1Nc1ccc(OC)c(OC)c1 (stereo not given)	-2%	-18%	3.0%	2[21.1 µM]
18	COc1ccc(-c2ccc(/C=C(\NC(=O)c3ccccc3)C(=O)N3CCOCC3)o2)cc1	15%	-23%	u	-15
19	Clc1ccc(Oc2nc3ccccc3n3cccc23)cc1	-4%	-3%	-1.3%	-1
20	CC(NC(=O)c1ccccc1)C(=O)OCC(=O)Nc1cccc(S(=O)(=O)N2CCCC2)c1 (stereo not given)	x	4%	3.5%	x
21	CCn1c(NC(C)=O)nc2ccccc21	-8%	2%	-3.5%	-2
22	O=C(NC1CCCN(Cc2ccc(Cl)cc2)C1)c1ccccc1-c1ncc[nH]1 (stereo not given)	1%	8%	-2.5%	x
23	Cc1c(NC(=O)CSc2nc(N)cc(N)n2)c(=O)n(-c2ccccc2)n1C	x	-4%	-2.3%	x
24	CCCN(C(=O)CSc1ncnc2sccc12)c1c(N)n(Cc2ccccc2)c(=O)[nH]c1=O	x	-17%	-1.7%	x
25	Cc1ccc(NC(=O)CNNC(=O)c2cccc([N+](=O)[O-])c2)cc1[N+](=O)[O-]	x	7%	0.1%	x
26	Nc1nc(CN2CCN(c3ccccn3)CC2)nc(Nc2ccc(Cl)cc2)n1	20%	-10%	-7.9%	3
27	Nc1c(S(=O)(=O)c2ccccc2)c2nc3ccccc3nc2n1/N=C/c1cccc(O)c1	-1%	-18%	3.3%	-16
28	O=C(CSc1ccc2ccccc2n1)c1ccccc1	-48%	11%	4.8%	2
29	CSC1=C(C#N)C(c2ccccc2)C(C(C)=O)=C(C)N1 (stereo not given)	0%	1%	-3.1%	10
30	COc1ccccc1-c1cccc([C@@H]2C[C@H]3[C@H](CON3C)CN2C(C)=O)c1	x	9%	4.7%	x
31	COc1ccccc1C(=O)Nn1cnnc1	4%	-9%	-2.8%	x
32	Cn1c(N)c(C(=O)CN2CCc3ccccc3C2)c(=O)n(C)c1=O	-2%	-3%	0.0%	4
33	CCN1CCCC1CNCc1ccc(OCc2ccc(Cl)nc2)c(OC)c1 (stereo not given)	-20%	9%	5.1%	-3
34	Cc1ccc(-c2nnc(N3CCN(C(=O)CSc4ncn[nH]4)CC3)c3ccccc23)cc1	13%	8%	-0.2%	-9
35	O=C(CSCc1c(Cl)cccc1Cl)NCc1ccccn1	-1%	-9%	-0.8%	-3
36	Cc1[nH]c2ccccc2c1C(=O)COc1ccccc1F	-49%	3%	0.8%	-1
37	CCOC(=O)c1cc(NC(=O)NCc2ccco2)c(C)nc1C	-1%	2%	-1.8%	1
38	CC1CCN(C(=O)CN(c2ccc(Oc3ccccc3)cc2)S(C)(=O)=O)CC1	7%	-14%	u	-6
39	Cc1cc(NC(=O)CN2CCCCC2)no1	0%	0%	1.8%	-6
40	COc1cc(C(C#N)N2CCOCC2)ccc1O (stereo not given)	3%	-4%	-5.2%	-4
41	CCOC(=O)Cc1csc(NC(=O)/C=C/c2ccc(Cl)cc2)n1	19%	0%	-3.4%	-9
42	COc1cccc(C2C(C#N)=C(N)N(N(C)C)C3=C2C(=O)CC(C)(C)C3)c1OC (stereo not given)	0%	-1%	6.3%	x
43	Cc1ccc(N2CC(C(=O)OCC(=O)Nc3ccc(Cl)cc3)CC2=O)cc1 (stereo not given)	x	18%	-4.5%	x
44	CC(=O)COc1ccc2oc(=O)cc(-c3cc4ccccc4o3)c2c1	2%	-8%	u	x
45	CCCCn1c(=O)c(CCC(=O)OCC(=O)NCc2ccc(OC)c(OC)c2)nc2ccccc21	0%	0%	-2.1%	-1
46	Cc1ccc(NC(=O)c2ncn(CC(=O)NCc3ccc4c(c3)OCO4)n2)cc1C	x	-2%	-2.7%	x
47	O=C(CN1C(=O)NC2(CCCCC2)C1=O)Nc1ccccc1N1CCCC1	x	-10%	u	x
48	O=C(NC1CCCC1)C1CCN(c2nccs2)CC1	-11%	-8%	-0.1%	5
49	Cc1ccc(Cn2c(O)c(N=O)c3ccccc32)cc1	3%	24%	-3.5%	8
50	COc1ccc(Cl)cc1C(=O)NCC(=O)OCc1ccccc1	x	16%	3.1%	x

# The listing continues.
cpd	Compound	miR-21 FLuc	Rango dissoc inh	Rango complex inh	GLA inh pH 4.5
51	CCN(CC)CCNC(=O)C1c2cc(OC)c(OC)cc2C(=O)N2CCc3ccccc3C12 (stereo not given)	-7%	-5%	8.7%	11
52	COc1ccc2cc3cc(C(=O)Nc4ccccc4N4CCN(C)CC4)oc3nc2c1	2%	9%	-0.3%	1
53	COC(=O)c1cc(NS(=O)(=O)c2ccc(NCc3cccnc3)c(N)c2)cc(C(=O)OC)c1	-6%	3%	5.1%	3
54	CC(Sc1nnc(C2CC2)n1C)C(=O)Nc1ccc2c(c1)CCC2 (stereo not given)	x	17%	0.6%	x
55	NC(=O)COC(=O)c1cc(Cl)cc(Cl)c1N	-3%	0%	-2.2%	u
56	CC1=C(C(=O)OC(C)C)C(c2ccc(Br)s2)NC(=O)N1 (stereo not given)	-5%	-1%	0.6%	0
57	C=C(C)CNC(=S)NNC(=O)c1ccco1	-3%	1%	-0.6%	-3
58	COc1ccccc1-c1nnc(SCC(=O)Nc2c(Cl)cccc2Cl)o1	-15%	-9%	2.9%	-1
59	COc1cccc(C(c2nnnn2CCc2ccccc2)N2CCN(c3ccccc3)CC2)c1OC (stereo not given)	10%	-4%	3.5%	-6
60	Cc1cccc(OCC(=O)Nc2ccc3c(c2)OCO3)c1C	-43%	2%	1.0%	-6
61	CN(Cc1cccs1)C(=O)CNC(=O)c1ccco1	-32%	6%	1.8%	x
62	COc1cc2c(cc1N/C=C(\C#N)c1nc(-c3ccc(F)cc3)cs1)oc1ccccc12	4%	-8%	-3.1%	9
63	CC(=C/c1ccco1)/C=N/N1CCN(c2ccccc2)CC1	-53%	-2%	2.0%	12
64	O=C(NC1CCCCC1)c1ccc(-n2cncn2)c([N+](=O)[O-])c1	x	13%	-2.9%	x
65	CC1(C)CC(=O)C=C(Nc2cccc(Cl)c2Cl)C1	x	-10%	-0.6%	x
66	Cc1cccc(C)c1OCc1cc(C(=O)N2CCN(c3ccccc3)CC2C)no1 (stereo not given)	-7%	-4%	-3.2%	x
67	CCOc1ccc(Nc2n[nH]c(=S)s2)cc1	-52%	25%	-0.7%	6
68	Nc1nc(Nc2ccccc2)nc(N2CCOCC2)c1[N+](=O)[O-]	-19%	0%	-0.5%	10
69	Cc1ccc(S(=O)(=O)N(C)c2ccc3c(ncn3C)c2[N+](=O)[O-])cc1	x	19%	-3.8%	x
70	COc1ccc(OCc2cc(C(=O)NCc3nc(C)cs3)no2)c(Cl)c1	-44%	-12%	-0.9%	x
71	COc1ccc(-c2cc(C)nc3nc(N)nn23)cc1	-2%	4%	2.5%	6
72	O=C(NC1CC2CCC1C2)c1ccc(CN2CCOCC2)cc1 (stereo not given)	-39%	1%	4.3%	1
73	CCOC(=O)c1sc2nc(C)nc(NCc3ccc(Cl)cc3)c2c1C	15%	-12%	5.3%	x
74	Cc1oc(-c2ccc(Cl)cc2)nc1CS(=O)CC(=O)NC1CC1 (stereo not given)	-3%	1%	1.0%	x
75	N#CC1(c2ccccc2)CCCN1C(=O)c1ccc(Br)cc1 (stereo not given)	0%	-5%	0.1%	0

# Arranged by formula weight (high to low): part of the list above
cpd	Compound	miR-21 FLuc	Rango dissoc inh	Rango complex inh	GLA inh pH 4.5
75	N#CC1(c2ccccc2)CCCN1C(=O)c1ccc(Br)cc1 (stereo not given)	0%	-5%	0.1%	0
64	O=C(NC1CCCCC1)c1ccc(-n2cncn2)c([N+](=O)[O-])c1	x	13%	-2.9%	x
65	CC1(C)CC(=O)C=C(Nc2cccc(Cl)c2Cl)C1	x	-10%	-0.6%	x

# Next part.
cpd	Compound	miR-21 FLuc	Rango dissoc inh	Rango complex inh	GLA inh pH 4.5
76	O=C(Nc1ccc(F)cc1)N1CCCN(c2nccc(C(F)(F)F)n2)CC1	-1%	-2%	0.5%	-6
77	CC(C)(C)NC(=O)C(=O)NNC(=O)c1cccc(F)c1	-32%	-9%	4.4%	-14[21.1 µM]
78	Cc1cnc(NC(=O)CSc2nnc(-c3ccccc3)o2)s1	-13%	-7%	-4.4%	0
79	COc1ccc(Nc2nc(-c3ccccc3F)nc3ccccc23)cc1OC	9%&12%	0%	-2.2%	x
80	Cc1ccc(S(=O)(=O)N2Cc3ccccc3CC2C(=O)Nn2cnnc2)cc1 (stereo not given)	0%	-5%	0.1%	1
81	N#CCCN(CCC#N)S(=O)(=O)c1ccc(C(=O)Nc2nnc(C3=COCCO3)o2)cc1	1%	30%	0.4%	1
82	c1ccc(COn2nnc3ccccc32)c(COn2nnc3ccccc32)c1	23%	-13%	0.5%	-23
83	O=C(NCCCn1ccnc1)/C(=C\c1cccs1)NC(=O)c1cccs1	0%	-19%	1.4%	3
84	Cc1cccc(Nc2nc(N)nc(CN3CCC(C(N)=O)CC3)n2)c1C	2%	8%	-1.0%	-9
85	COc1ccc(C(=O)CN2CCN(c3ccc(F)cc3)CC2)cc1	0%	-17%	-0.5%	x
86	COc1ccc(Nc2cc(C(=O)NCCCN3CCN(C)CC3)c3ccccc3n2)cc1	-6%	27%	-2.4%	-9
87	COC(=O)c1oc2ccccc2c1NC(=O)CN1CCCC1	-7%	-5%	-1.0%	-5
88	O=C(NCC(=O)N(c1cccc(F)c1)C(C(=O)NC1CCCC1)c1ccncc1)c1ccco1 (stereo not given)	-2%	5%	-0.3%	x
89	c1ccc2[nH]c(CSc3nccs3)nc2c1	-41%	10%	0.8%	-2

# Values by screen from the list:
# Compounds 81 to 85 in Rango complex inh read 0.4%, 0.5%, 1.4%, -1.0%, -0.5%
# Compounds 81 to 85 in Rango dissoc inh read 30%, -13%, -19%, 8%, -17%
